Screening results deposited in PubChem BioAssay by Broad Institute.
T cruzi repl – blocks replication of Trypanosoma cruzi; T. cruzi beta-gal in NIH3T3, luminescence, 90 h; inhibition, % (concentration not given with the values); hit rate 1.4% among 300,000; AID 1885;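 active = mean inhibition across valid replicates above about 55%, limit read from the data; inconclusive = mean below that limit but half or more replicates reach it; inactive = mean below it, under half of replicates reach it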;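 also: signal also drops with host cell toxicity which is not excluded here; 0% = plate median of DMSO wells and 100% = zero luminescence signal; higher percent means less beta-gal luminescence so fewer parasites; stock transfer was 50 nL into about 50 µL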
AF4-AF9 inh – blocks AF4 peptide binding to human AF9; P42568; AlphaScreen, biotin-AF4 peptide binding to FLAG-AF9; inhibition, % at 10 µM; hit rate 0.47% among 350,000; AID 651704;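 active = every replicate reaching a set inhibition limit, whatever the replicate mean, cut at about 25% in these data; inconclusive = mean inhibition reaches that limit but some replicates miss it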;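 also: 0% = plate neutral control median and 100% = total signal loss; the record names both 10 and 1 µM as test concentration; the first replicate is given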
Target sequence (P42568 whole entry, looked up): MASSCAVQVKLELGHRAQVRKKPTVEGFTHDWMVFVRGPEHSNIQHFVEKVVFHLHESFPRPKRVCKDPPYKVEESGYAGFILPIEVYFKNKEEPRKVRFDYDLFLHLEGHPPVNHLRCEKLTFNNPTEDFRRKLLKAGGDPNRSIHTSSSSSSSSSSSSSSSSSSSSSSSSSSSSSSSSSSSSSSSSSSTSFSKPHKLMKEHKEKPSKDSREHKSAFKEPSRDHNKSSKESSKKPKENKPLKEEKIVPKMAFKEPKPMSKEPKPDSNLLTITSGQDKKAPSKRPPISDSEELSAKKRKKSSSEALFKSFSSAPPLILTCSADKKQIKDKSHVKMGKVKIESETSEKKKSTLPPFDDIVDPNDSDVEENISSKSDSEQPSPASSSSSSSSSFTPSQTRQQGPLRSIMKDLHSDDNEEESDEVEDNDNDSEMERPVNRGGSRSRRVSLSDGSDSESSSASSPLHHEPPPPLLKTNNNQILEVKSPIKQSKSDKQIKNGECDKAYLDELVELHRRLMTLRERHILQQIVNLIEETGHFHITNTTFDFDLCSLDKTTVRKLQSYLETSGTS
Beta apoptosis – beta cell apoptosis inhibition; INS-1E cytokine-induced death, ATP luminescence, 48 h; percent of positive-control rescue, neutral wells zero; protection from apoptosis, % (test concentration not listed); hit rate 0.8% among 300,000; AID 435005;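 active = all replicates at 75% or more, or half of them and the mean; inconclusive = half reach 75% but not the mean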;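 also: 0% = cytokine-treated negative control wells and 100% = positive control rescue; higher means more ATP so stronger rescue from cytokine killing; wells of about 40 µL received 100 nL stock; the first replicate is given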
ALR inh – human ALR oxidase inhibition via reduced H2O2; P55789; purified ALR, DTT oxidation, H2O2 HRP-luminol luminescence; inhibition, % (test concentration not listed); hit rate 3.8% among 290,000;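 active = mean and each replicate at 75% or more; inconclusive = only one of the two met; inactive = neither met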;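 also: stock transfer was 7.5 nL into about 7.5 µL; 0% = neutral wells and 100% = wells with inactivated enzyme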
Target sequence (P55789 whole entry, looked up): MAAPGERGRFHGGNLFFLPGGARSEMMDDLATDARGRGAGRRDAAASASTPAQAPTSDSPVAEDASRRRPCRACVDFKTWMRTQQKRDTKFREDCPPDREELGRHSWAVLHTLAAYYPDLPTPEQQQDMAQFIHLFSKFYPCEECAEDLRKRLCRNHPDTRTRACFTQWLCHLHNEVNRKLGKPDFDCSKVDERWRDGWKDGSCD
rRNA inh HTS – inhibits bacterial ribosomal RNA function over humanized ribosomes. E. coli WT GFP vs humanized-ribosome RFP mutants, fluorescence, 24 h; hits give low values; DMSO median 0, no signal -100. GFP signal change (wild-type ribosome), % (no concentration beside the values). hit rate 1.6% among 350,000;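 active = significant combined selectivity score with lowered wild-type GFP, culture density cut under 30%, mutant RFP and density less affected; inactive = any of these conditions unmet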; also: one replicate is shown; some compounds called inactive have numbers as strong as hits
FGF22 binding – FGF22 (human) thermal shift binding. recombinant FGF22 thermal shift, SYPRO orange fluorescence; percent of sucrose octasulfate shift, DMSO zero. calls only at 9.99 µM. hit rate 1.5% among 340,000. AID 651658;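 active = melting point raised past a set limit in the mean and every replicate; inconclusive = no clear call; three in four hits are not shown here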
Target sequence (Q9HCT0 whole entry, looked up): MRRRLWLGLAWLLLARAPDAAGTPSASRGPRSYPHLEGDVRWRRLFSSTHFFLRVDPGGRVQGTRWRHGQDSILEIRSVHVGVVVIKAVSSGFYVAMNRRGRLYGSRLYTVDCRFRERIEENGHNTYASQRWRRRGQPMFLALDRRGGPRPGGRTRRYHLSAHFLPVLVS
RanGTP-Impb inh – inhibitors of RanGTP-importin-beta interaction, primary screen, biochemical, FRET, CFP-Ran, YFP-importin-beta, homogeneous. inhibition, % (test concentration not listed). hit rate 1.1% among 300,000. AID 2216. cell-free CFP-Ran/YFP-importin-beta FRET ratio;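 active = most replicates above 15%; inconclusive = exactly half above 15%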;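 also: 0% = DMSO wells and 100% = Ran loaded with GDP instead of GTP; wells of about 40 µL received 100 nL stock; the first replicate is given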
Calb FLC – affects C. albicans growth with fluconazole; C. albicans CaCi-2 (fluconazole-resistant clinical isolate) + fluconazole, Alamar Blue growth, 48 h; growth inhibition, % (no concentration beside the values); hit rate 0.57% among 300,000; AID 1979;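 active = most replicates above 75%; inconclusive = exactly half above 75%; inactive = most below 75%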;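 also: all wells also contain fluconazole at 8 µg/ml as a sub-toxic cotreatment; 0% = median of DMSO wells and 100% = median of geldanamycin control wells; wells of about 8 µL received 7.5 nL stock; the first replicate is given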
rRNA inh HTS OD600 – recorded beside rRNA inh HTS, whose call it bears; OD600 change, %; measured here: OD600 growth;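 optical density of the mix in the first replicate; 0 = DMSO median and -100 = no signal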
rRNA inh HTS RFP – also measured in rRNA inh HTS; calls as there; RFP signal change, %; measured here: RFP humanized mutant strains;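 first replicate; 0 = DMSO median and -100 = no signal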
* = called active by the depositor; i = inactive; ? = inconclusive; / = no result given; & = joins results of further samples.

compound	T cruzi repl	AF4-AF9 inh	Beta apoptosis	ALR inh	rRNA inh HTS	rRNA inh HTS OD600	rRNA inh HTS RFP	FGF22 binding	RanGTP-Impb inh	Calb FLC
S=C(Nc1ccccc1Cl)N(CCN1CCCCC1)Cc1ccco1	-23	/	-6	-1	/	/	/	/	-1.7	16
COc1ccc(OCCSc2nnc(C)n2-c2ccccc2)cc1	5	/	/	-5	-18	-31	-1.4	/	2.4	?
CSCCC(NC(=O)c1cccc(S(=O)(=O)N2CCOCC2)c1)c1nc2ccccc2[nH]1 (stereo not drawn)	/	-1.0	-5	-3	4	0	-2.2	i	/	/
COc1ccccc1NC(=O)c1ccc2nc(C)sc2c1	0	-2.4	-1	-8	0	1	-1.9	i	-1.0	28
CC1(C)C=Cc2c(ccc(-c3coc4cc(O)ccc4c3=O)c2O)O1	-11	/	-4	-18	/	/	/	/	2.8	2
CN1CCN(c2ccc(NC(=O)CSc3nnnn3-c3ccccc3Cl)cc2)CC1	15	4.2	-4	3	1	0	0.2	i	3.2	11
CC(C)N(CCNS(=O)(=O)c1ccc(Cl)cc1)C(C)C	14	/	-4	-17	/	/	/	/	-1.0	-3
O=c1cc(O)nc(SCc2ccccc2)n1-c1ccccc1	3&-22	/	-8	38&45	/	/	/	/	-2.7&-3.8	-4&-6
O=C(NCc1ccccc1)C(=O)Nc1nccs1	/	-0.7	-2	/	4	5	0.2	i	/	-2
Cc1cccc(Nc2nc(N)nc(CN3CCN(c4ccc(F)cc4)CC3)n2)c1	-8	/	-4	25	/	/	/	/	0.8	26
CCOc1ccc(CCNC(=O)COC(=O)CCc2cc(OC)c(OC)c(OC)c2)cc1OCC	-13	-12	-3	-2	-3	2	-1.8	i	/	-1
CCN(CC(=O)NCc1cccs1)C(=O)c1cccc(S(=O)(=O)Nc2ccc(OC)cc2)c1	5	-0.3	-4	0	0	-9	0.6	i	4.9	5
CC1(N2CCCCC2)C(=O)c2ccccc2C1=O	-8	0.1	-2	-8	11	8	-1.0	i	0.1	-2
O=C(N/N=C/c1cccc2nccnc12)c1ccncc1	-16	-4.1	-4	0	2	2	0.7	i	7.4	-2
COc1ccc(Cl)cc1NC(=S)N1CCN(c2ccccn2)CC1	8	/	1	-34	/	/	/	/	3.0	13
CN1C(=O)/C(=C\c2ccco2)N=C1c1ccc(Cl)cc1Cl	/	13	-2	13	3	8	15	i	-2.1	-3
COc1ccc(NC(=O)NCCCN2CCC(Cc3ccccc3)CC2)cc1	6	8.7	7	-3	3	1	2.3	i	1.7	-10
O=C(NCC1CCCO1)C1CC(c2ccc(Cl)c(Cl)c2)=NO1 (stereo not drawn)	0	/	1	-3	/	/	/	/	2.8	-1
CC12CN3CC(C)(CN(C1)C3c1ccc(Br)cc1)C2=O (stereo not drawn)	-26	/	-10	-2	-1	9	-3.4	/	-2.7	3
Cc1ccc(C(=O)N(CCC2=CCCCC2)c2c(N)n(Cc3ccccc3)c(=O)[nH]c2=O)o1	3	-3.2	0	12	4	5	4.5	i	/	-5
O=C(NCCc1ccc2c(c1)OCCO2)c1ccccn1	-5	1.8	-4	-15	0	-4	1.9	i	-1.4	-2
O=C(CSc1ccccc1)N1CCCC(N2CCN(c3ccc(F)cc3)CC2)C1 (stereo not drawn)	-1	5.1	4	67	-20	-18	2.9	i	-0.1	-7
CS(=O)(=O)Nc1ccccc1C(=O)OCC(=O)N1CCC(c2ccccc2)=N1	/	2.8	-2	-4	-32*	-19*	3.3*	i	/	/
COc1ccccc1CNC(=O)Cn1c(=O)oc2cc(S(=O)(=O)N3CCCC3)ccc21	-7	6.3	-6	-6	-2	-5	0.3	i	?	-10
COc1ccccc1CC(=O)NNC(=O)c1ccc(C(C)(C)C)cc1	-12	-1.8	-11	-12	-2	-11	-2.5	i	-1.6	30
CCOc1ccc(C(=O)COC(=O)Cc2n[nH]c(=O)c3ccccc23)cc1	1	-14	31	-3	4	7	-2.0	i	4.1	-4
NCCCCC(N)c1cn([C@@H](CCC(=O)O)C(=O)N2CCNCC2)nn1 (stereo partly drawn)	/	-3.5	-6	-7	10	2	4.9	i	/	/
CN(CCCOc1ccccc1F)Cc1ccccc1	24	3.8	/	6	7	-2	4.0	i	-2.9	-5
CCN1CCN(c2nnc(-c3ccccc3)c3ccccc23)CC1	-1	0.3	-2	/	9	2	-6.4	i	-0.3	-19
CC(=O)c1ccc(NC(=O)C(C)OC(=O)C2CCN(c3ccc(C(F)(F)F)cn3)CC2)cc1 (stereo not drawn)	7	-4.3	-2	/	-2	-29	-2.3	i	4.3	-3
CCC1CCCCN1CCCNC(=O)c1cn(C)c2ccc(S(=O)(=O)N(C)C3CCCCC3)cc2c1=O (stereo not drawn)	40	5.7	2	-4	3	15	-0.4	i	3.0	-1
Cn1cccc1C(=O)NC(=O)COC(=O)CNC(=O)CNC(=O)c1ccc(Cl)cc1Cl	0	1.5	-6	-32	8	4	0.6	/	1.4	16
COc1cc(/C=C2\SC(=O)N(c3ccc(O)cc3)C2=O)cc(OC)c1OC	-9	-0.7	3	1	-6	-6	6.4	i	1.3	30
CCOC(=O)c1c(C2CC2)csc1NC(=O)COC(=O)c1ccc[n+]([O-])c1	-8	4.2	-3	13	-30	-38	23	i	5.6	-12
O=C(NC1CCCCC1)c1ccccc1C(F)(F)F	-7	-11	-4	-1	6	1	4.0	i	-4.6	2
C[C@H]1CN([C@@H](C)CO)C(=O)Cc2cc(NS(=O)(=O)c3cccs3)ccc2O[C@H]1CN(C)S(=O)(=O)c1cn(C)cn1	/	0.5	0	-2	6&7	5&5	0.6&7.1	i	/	/
Cc1cccc(NCc2nnc(-c3ccccc3)o2)c1C	-10	-0.3	-5	/	-18	-12	12	i	-0.7	42
CCOC(=O)c1sc(NC(=O)c2ccc3ncsc3c2)nc1C	-6	-36	1	/	3	14	-1.6	i	2.9	2
COCCNC(=O)C(c1ccc(Cl)cc1)N(CCOC)C(=O)CCC(=O)Nc1ccccn1 (stereo not drawn)	-2	-7.2	-3	-1	6	0	-0.4	i	-0.3	3
Cc1nn(-c2ccccc2)c(C)c1C(=O)OC(C)C(=O)NC1CCCCC1 (stereo not drawn)	/	9.3	-5	-5	-10	-24	-2.1	i	/	/
CCC1CCCCN1CCCNC(=O)Cn1c2ccccc2c2nc(=O)cc(C)n21 (stereo not drawn)	-2	1.7	-6	-6	7	10	-3.0	i	-0.2	-2
CCc1nn(CC(=O)NCCCN2CCc3ccccc3C2)c(=O)c2cc3sccc3n12	14	-0.3	-2	95*	9	7	3.7	i	0.9	26
NC(=S)c1cc2cc(Cl)ccc2oc1=O	-29	3.8	0	/	15	14	3.5	/	-4.2	-4
O=C(CC(c1ccccc1)c1ccccc1)OCn1nnc2ccccc2c1=O	3	/	-6	-3	/	/	/	/	-5.1	10
CN(C)S(=O)(=O)c1ccc(Cl)c(NC(=O)COC(=O)CC(NC(N)=O)c2ccc(Cl)cc2)c1 (stereo not drawn)	-17	-1.5	-3	/	-1	-2	5.5	i	?	-5
O=C(Nc1cccc(Cl)c1)c1nc[nH]c1C(=O)N1CCN(c2ccccc2)CC1	/	-1.2	-6	-2	3	14	7.9	i	/	/
COC(=O)CNC(=O)c1cccc(F)c1	-19	/	-1	-14	/	/	/	/	-1.1	-2
Cc1cccc(CCNC(=O)Cc2ccc(NC3=NC4CS(=O)(=O)CC4S3)cc2)c1 (stereo not drawn)	-11	47*	2	-5	8	7	-0.6	i	?	1
O=C(N/N=C/c1cnc(N2CCCCC2)s1)c1ccc(Cl)cc1	6	-0.9	15	-2	19	19	3.4	i	-1.6	44
O=C(COC(=O)C1=COCCO1)Nc1ccc(OC(F)F)cc1	-10	-0.9	-8	-7	7	14	-5.0	i	1.9	-12

(cont.)
compound	T cruzi repl	AF4-AF9 inh	Beta apoptosis	ALR inh	rRNA inh HTS	rRNA inh HTS OD600	rRNA inh HTS RFP	FGF22 binding	RanGTP-Impb inh	Calb FLC
COCC(=O)Oc1c(S(=O)(=O)c2ccc(C)cc2)c(C)nn1-c1ccccc1	6	/	0	/	/	/	/	/	3.9	9
Cc1cc(C)c(C)c(S(=O)(=O)N2CCN(C(=O)CCC(=O)N3CCOCC3)CC2)c1C	-9	-2.1	-3	-5	5	-1	-4.3	i	5.5	11
Cc1ccsc1/C=C(/C#N)C(=O)NCc1ccccc1	0	-7.4	4	/	-3	-14	-3.0	i	?	-4
Cn1c(=O)[nH]c(=O)c2c1nc(N1CCNCC1)n2Cc1ccccc1Cl	10	-1.9	-5	-12	7	7	-3.7	i	3.5	9
Cc1ccc(S(=O)(=O)Nc2ccc(Cl)cc2C(=O)c2ccc(F)cc2)cc1	4	0.3	7	-3	/	/	/	i	1.8	46
COc1ccc(Cl)cc1NC(=O)CN(C)Cc1ccc(OC)c(OC)c1	6	1.7	2	3	-14	-24	-3.3	i	4.9	23
O=C(COC(=O)c1ccccc1O)NCc1ccc2c(c1)OCO2	/	2.3	-6	9	-4	-17	1.9	i	/	/
CCOC(=O)c1c[nH]c2c(C)cc(C)cc2c1=O	-8	/	-6	-2	/	/	/	/	-3.5	1
CCOc1ccc(NS(=O)(=O)c2ccc(C(=O)NCC(c3ccco3)N3CCCC3)cc2)cc1 (stereo not drawn)	/	-0.6	3	3	-11	-7	7.2	i	/	/
Cc1cc(C)c(C)c(OCC(=O)O/N=C(\N)c2ccccn2)c1	-12	/	-1	14	/	/	/	/	3.5	4
COc1ccc(CCNC(=O)CSc2nc(=O)[nH]c3c2CCC3)cc1OC	-8	-0.5	/	-9	6	4	-3.4	i	-1.9	-7
COc1cc(C(=O)OCC(=O)NC2CCCC2)cc(OC)c1OC	10	-1.2	-4	-19	-1	0	0.1	i	-0.5	-7
CC(=O)Oc1c(S(=O)(=O)c2ccc(C)cc2)c(C)nn1-c1ccccc1	5	/	/	-1	/	/	/	/	-0.1	-17
O=C(CCCN1C(=O)CCC1=O)Nc1ccc2c(c1)OCCO2	-7	/	0	-4	/	/	/	/	-2.0	-3
O=S(=O)(Nc1ccccc1)c1ccc(NS(=O)(=O)c2c(F)cccc2F)cc1	-10	-3.2	1	-2	-7	-23	2.4	i	-3.3	7
O=C(c1cnc2sccn2c1=O)N(Cc1ccccc1)c1ccccn1	-7	0.0	2	5	-2	7	0.8	i	-5.9	-4
Cc1nn(C)c(NC(=O)c2ccc(Cl)cc2Cl)c1Br	-5	-0.4	-3	-5	4	3	-2.3	i	-0.9	2
COC(=O)c1cc(CNC(=O)c2cccc(Cl)c2Cl)ccc1OC	3	-2.3	-9	-1	8	-1	-0.2	i	3.2	-9

A portion of the library, so the mix of outcomes need not match the whole.
